Screening results as filed in PubChem.
D2 potentiator: positive allosteric modulators of human D2 dopamine receptor; 0.23% of 360,000 active; DiscoveRx D2 beta-arrestin cells, luminescence, 90 min; 100% = 57 uM dopamine signal; P14416; potentiation, % (test concentration not listed); active = potentiation of 50% or more; inconclusive = 30% to 50%; inactive = 30% or less;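 note: compound concentration not given in the record; tested on top of an EC20 dose of dopamine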
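PathHunter D2 cells, attached overnight at 37 deg C, received compound in DMSO plus dopamine at EC20 (50 nM final) for 90 min at 37 deg C. Beta-arrestin recruitment was read as luminescence after 1 h with detection reagent at ambient temperature.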
TRPV1 potentiator: enhances activation of the human vanilloid receptor TRPV1 | 0.02% of 320,000 active | TRPV1-expressing cells, Fluo-8 calcium influx, capsaicin EC20 potentiation; host cell line not named in the record; control for the full effect not named in the record | AID 540277 | potentiation, % at 8.33 µM | Q8NER1; active means potentiation above 80%; inconclusive means 30% to 80%; inactive means below 30%; note: 0% is about no effect
Target sequence (Q8NER1 whole entry, looked up): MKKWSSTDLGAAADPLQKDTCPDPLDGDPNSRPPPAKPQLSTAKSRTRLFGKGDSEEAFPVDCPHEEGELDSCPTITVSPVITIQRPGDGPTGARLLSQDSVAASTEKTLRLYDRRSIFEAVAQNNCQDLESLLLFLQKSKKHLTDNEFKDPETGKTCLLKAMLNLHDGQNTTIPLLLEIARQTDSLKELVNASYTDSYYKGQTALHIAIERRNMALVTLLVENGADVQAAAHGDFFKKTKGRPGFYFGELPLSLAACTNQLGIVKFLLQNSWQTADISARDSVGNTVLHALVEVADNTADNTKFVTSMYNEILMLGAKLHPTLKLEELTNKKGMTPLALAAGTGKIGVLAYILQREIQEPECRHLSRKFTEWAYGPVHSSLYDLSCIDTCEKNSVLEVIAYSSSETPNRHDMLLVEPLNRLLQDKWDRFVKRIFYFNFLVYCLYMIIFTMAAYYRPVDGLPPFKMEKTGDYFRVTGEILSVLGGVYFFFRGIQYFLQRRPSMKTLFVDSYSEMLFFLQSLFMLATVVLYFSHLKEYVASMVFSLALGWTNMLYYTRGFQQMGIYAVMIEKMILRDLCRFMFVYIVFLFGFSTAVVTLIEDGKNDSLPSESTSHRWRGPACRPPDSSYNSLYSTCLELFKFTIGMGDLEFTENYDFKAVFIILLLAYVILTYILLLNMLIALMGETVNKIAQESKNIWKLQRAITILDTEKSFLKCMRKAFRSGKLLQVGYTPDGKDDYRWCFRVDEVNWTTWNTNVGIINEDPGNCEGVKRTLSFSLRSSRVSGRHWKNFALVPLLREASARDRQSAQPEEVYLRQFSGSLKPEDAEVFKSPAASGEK
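Fluo-8 calcium influx in TRPV1-expressing cells, kinetic read (ex 480/em 520 nm). Compound added and read 3 min for agonist activity, followed by capsaicin at EC20 final and 2 min further read for enhancement.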
D2 agonist: activates the human D2 dopamine receptor; activation, % (test concentration not listed); DiscoveRx PathHunter D2 beta-arrestin, luminescence, 90 min; 100% = 57 uM dopamine signal; 0.084% of 360,000 active; in the data active = activation above about 40%; inconclusive = about 15% to 40%; inactive = below about 15%; note: compound concentration not given in the record; the text of the record calls up to 30% inactive
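Agonist mode: compounds alone added to overnight-plated D2 PathHunter cells for 90 min at 37 C, with 57 uM final dopamine (EC100) defining full response. Beta-arrestin recruitment detected by chemiluminescent reagent, read after 1 h at ambient temperature.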
Sfp inh: Sfp phosphopantetheinyl transferase inhibition. Q9F4F7. Biochemical Sfp PPTase activity, qHTS. Potency, µM, without a hit: max response, negative = inhibition, hits mostly inhibitors. 3.5% of 310,000 active; active = well fitted inhibition curve with a large enough effect; inconclusive = small, poorly fitted or top-dose-only effect, or another doubt; inactive = no such curve, though single readings can be large or run the other way;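 note: the enzyme is Sfp with the accession as filed and its product quenches rhodamine fluorescence; potency is the fitted concentration of half-maximal effect; 0% = enzyme reaction without inhibitor and -100% = no enzyme wells; top concentration of the series not given in the record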
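Sfp 15 nM + cpd, 15 min RT; start w/ rhodamine-CoA 5 uM, BHQ-2-YbbR 12.5 uM (final); 50 mM Hepes pH 7.6, 10 mM MgCl2, 0.01% NP-40, 0.01% BSA; read 525/598 nm at 0 and 30 min.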
CtBP-E1A blk: inhibitors of CtBP/E1A interaction | 0.49% of 340,000 active | AID 651724 | activity change, % (test concentration not listed) | AlphaScreen GST-E1A/His-CtBP binding, 1536-well; stronger effect = lower value; control for the full effect not named in the record; in the data active means activity change below about -65%; inconclusive means about -30% to -65%; inactive means above about -30%; note: % is set by controls: 0 for no effect and ±100 for the full control effect; compound concentration not given in the record
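Homogeneous bead-based format: GST-tagged E1A captured on glutathione donor beads, His-tagged CtBP on nickel acceptor beads; compounds precede bead addition by 2 h at 37 °C.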
PINK1 modulator: changes PINK1 expression | PINK1 immunofluorescence, high-content cytometry, 24 h | Potency, µM (doses to about 76.6 µM), for inactives: top-dose activation (PINK1 increase), usual class: activators | 0.2% of 410,000 active | AID 624263; active = well fitted activation curve with a large enough effect; inconclusive = small, poorly fitted or top-dose-only effect; inactive = flat fitted curve, though single readings scatter; cell line not stated here;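 note: potency is the fitted concentration of half-maximal effect; % of control where 0% means no effect; nearly all actives have a fitted effect of over 65% in size; a mitochondrial uncoupler was the plate control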
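Cells are seeded, rested 12 hours, then given compound at five concentrations or DMSO for 24 hours. After fixation, blocking and antibody staining, PINK1 amount and mitochondrial localization are scored; CCCP serves as control.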
Six1-Eya2 blk: blocks human Six1 binding to Eya2 | 0.56% of 360,000 active | AID 651725 | AlphaScreen GST-Six1/His-Eya2 binding, biochemical; stronger effect = lower value; control for the full effect not named in the record | activity change, % (no concentration beside the values); in the data active = activity change below about -65%; inconclusive = about -30% to -65%; inactive = above about -30%; note: % is set by controls: 0 for no effect and ±100 for the full control effect; compound concentration not given in the record
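Homogeneous AlphaScreen proximity assay pairing GST-Six1 with His-tagged Eya2 (added as 5X mix: 250 nM and 500 nM) in 50 mM Tris pH 8.0, 300 mM NaCl, 1 mM TCEP. Glutathione donor and nickel acceptor beads; 1 h, 37 °C, dark.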
* = called active by the depositor; ? = inconclusive; / = not tested or not shown; & = joins results of further samples; [ ] = remark or other dose.

SMILES	D2 potentiator	TRPV1 potentiator	D2 agonist	Sfp inh	CtBP-E1A blk	PINK1 modulator	Six1-Eya2 blk
CCCCCC(=O)NCC(C)NC(=O)CCCCC (centres undefined)	-9	-8	0.4	5%	6	0.2%	8
COc1ccc(-c2nc3ccccc3o2)cc1NC(=O)CSc1ccc(Cl)cc1	-5	9	-3.2	-2%	12	-0.9%&2.4%	-5
Cn1c(=O)c2c(ncn2CC(=O)N2CCOCC2)n(C)c1=O	-4	-1	-3.2	23%	-1	-1.7%	8
OC(c1ccc(Cl)cc1)C(O)c1nc2ccccc2[nH]1 (centres undefined)	-12	21	0.9	9%	13	1.5%[38.3 µM]	6
COCCN(C(=O)c1ccc2c(c1)S(=O)(=O)N=C1CCCCCN12)c1c(N)n(CC(C)C)c(=O)[nH]c1=O	-4	/	5.7	/	-2	-0.1%	4
Cc1ccc2c(c1)[nH]c1c(=O)n(CCN3CCCCC3)cnc12	-24	-2	-0.6	8%	13	-0.6%	2
COc1cc(NC(C)CCCNC(C)C)c2ncccc2c1OC (centres undefined)	-5	/	0.9	/	-14	-2.0%	-5
CCOC(=O)CNc1nc(Cl)nc(Nc2ccc(C)cc2)n1	-5	-10	-0.9	12%	6	1.2%	-1
CCCCN1CC2([N+](=O)[O-])C=CC(=O)C([N+](=O)[O-])(C1)C2CC(=O)c1ccccc1 (centres undefined)	-10	-4	-3.7	11%	-12	3.8%	-12
COc1ccc(C(=O)NCCn2cc(SCC(=O)Nc3nnc(C)s3)c3ccccc32)cc1	-3	/	4.7	/	-11	15%[38.3 µM]	-6
C/C(=N\NC(=O)c1ccc(O)cc1)c1cccc(NC(=O)c2ccccc2C)c1	-16	-6	0.7	15%	-4	12%	-15
O=C1C2C3CCC(C3NCc3ccccc3)C2C(=O)N1Cc1ccccc1 (centres undefined)	8	-20	6.0	5%	8	-0.1%	7
Nc1ccc(C(=O)NCC2(c3ccccc3)CCCC2)cc1	-7	7	-3.3	20%	8	5.6%	9
O=C1CC2(CCN(C(=O)c3ccccc3Br)CC2)Oc2ccccc21	-2	-9	-3.7	/	4	2.9%	2
CNc1nc(-c2ccccc2)cc(C(F)(F)F)c1C#N	-1	-2	-1.2	12%	3	9.0%	8
CCCCN1C(N)=NC[C@@H]1Cc1ccccc1	-3	/	-2.6	/	9	0.1%	12
S=C(NCc1ccco1)Nc1ccc2c(c1)OCCO2	-10	18	0.0	28µM*	-4	-1.5%	-5
CC(=O)NCC1CCCN(c2nc3nonc3nc2N(C)Cc2ccccc2)C1 (centres undefined)	-7	7	1.9	16%	10	2.2%	0
Cc1ccc(Nc2nc(-c3cccnc3)nc3ccccc23)cc1	1	3	7.0	?	-25	4.2%	?
COC1C=CC=C(C)C(=O)NC2=CC(=O)C(N)=C(CC(C)CC(OC)C(O)C(C)C=C(C)C1OC(N)=O)C2=O (centres undefined)	17	/	3.5	/	-14	-7.2%	3
COc1ccc(S(=O)(=O)NCCC(=O)Nc2ccc(C)cc2)cc1	-7	-18	0.2	5%	-14	2.0%	19
CN(C)CCCN(C(=O)c1ccc([N+](=O)[O-])o1)c1nc2cc3c(cc2s1)OCO3	-14	11	8.0	-4%	-16	1.8%	-13
Cc1cc(N2CCOCC2)nc2ccc(NC(=S)NC(C)C)cc12	-3	-17	3.5	-15%	/	0.1%	4
Cc1ccc(NC(=O)c2cc(-c3cc(Cl)ccc3O)n[nH]2)cc1C	1	20	3.2	17%	/	1.5%	0
O=C(NC(=S)Nc1ccc(CN2CCCCC2)cc1)c1cccc(OCc2ccccc2)c1	-13	0	-5.5	79µM*	-21	8.1%	-25
O=C(O)CCC(=O)Nc1ccc(Br)cc1C(=O)c1ccccc1	5	11	-0.2	-7%	6	0.4%	10
COc1ccc(Cl)cc1NC(=O)COc1ccc2c(c1)OCO2	-2	-5	0.9	/	/	-0.2%	11
CN[C@H](C)C(=O)NC[C@H]1O[C@@H](n2cnc3c(N)ncnc32)[C@H](O)[C@@H]1O	/	/	-0.6	/	-7	0.1%	1
CCOc1ccc(C(=O)N/N=C/c2ccccc2[N+](=O)[O-])cc1	2	0	3.8	-3%	9	20%	-1
COC(=O)Cc1ccc(NC(=O)c2ccccc2Br)cc1	-5	12	1.0	19%	/	0.5%	-3
CCOC(=O)C1=C(C)N(c2ccc(OC)cc2)C(=O)/C1=C\c1cccs1	-1	23	-3.4	10%	-6	1.7%	-27
COc1ccc(C(=O)NC(Cc2ccccc2)c2ccc3c(c2)OCCCO3)cc1 (centres undefined)	-6	-1	-1.3	4%	-4	4.7%[38.3 µM]	-2
CCOC(=O)c1c(N)n(-c2ccc(N)cc2)c2nc3ccccc3nc12	6	-2	2.0	-3%	-11	1.9%	-10
O=S(=O)(NCc1ccncc1)c1ccccc1	10	1	-0.8	20%	6	-1.1%	-2
CCOc1ccc(NC(=O)CC2C(=O)N(C)C(=S)N2CCCc2ccccc2)cc1 (centres undefined)	2	?	-9.0	-9%	3	1.6%	3
N#Cc1c(-c2ccc(Br)cc2)cc(-c2cccnc2)nc1N	-22	-1	-4.1	9%	-5	0.1%	9
C=CCN1C(=O)CSC1=Nc1ccc(C(=O)O)cc1	0	15	3.4	1%	/	-0.1%	-2
CN(c1ccccc1)c1nc(N)c([N+](=O)[O-])c(NCc2ccccc2)n1	-2	-1	-7.3	4%	0	4.7%	3
O=c1oc2cc(OCc3ccc([N+](=O)[O-])cc3)ccc2c2c1CCCC2	14	-1	-1.7	0%	3	6.3%	0
Cc1ccc(S(=O)(=O)N2CCOCC2)cc1C(=O)N1CCN(c2ncccn2)CC1	25	-11	5.6	/	0	4.2%	10
CCCC(O)(c1ccccc1)C(c1ccccc1)c1ccccn1 (centres undefined)	-2	/	-1.2	/	5	0.8%	12
Nc1c(S(=O)(=O)c2cccs2)c2nc3ccccc3nc2n1/N=C/c1cccc(O)c1	?	?	2.0	5%	-92*	5.9%	-87*
Cc1cccc(C(=O)Oc2coc(CSc3nnc(NC(=O)C4CC4)s3)cc2=O)c1	-15	2	-0.6	-9%	-19	0.4%	-5
CC(=O)Nc1ccc2c(c1)nc(C)n2Cc1ccccc1	-2	8	1.9	21%	/	0.1%	1
CC(=O)c1cnc(N2CCCCC2)nc1C	17	-3	-1.9	12%	11	/	27
CCCCNC(=O)c1onc(CSc2cccc3ccccc23)c1C(=O)O	-7	11	-0.3	4%	-14	1.0%	-1
Cc1ccnc(NC(=O)CCC(=O)N(CC(=O)NC2CCCCC2)c2cccc(C)c2C)c1	-12	13	-2.5	9%	0	0.4%	-3
CCCCCOC(=O)c1cc(=O)[nH]c2ccccc12	-5	?	-2.0	3%	-4	-0.7%	-5
COc1cccc(-c2nc(-c3ccc4c(c3)-c3ccccc3S4(=O)=O)c(-c3ccccc3)[nH]2)c1OC	-23	-3	-1.7	-4%	-6	-1.2%	-8
C[C@@H]1CN([C@@H](C)CO)C(=O)CCCn2cc(nn2)CO[C@H]1CN(C)S(=O)(=O)c1ccccc1F	1	/	-12	/	0	-0.8%	2
CCCCN(CCCC)c1nc2ccccc2nc1C(C#N)C(=O)NCCCOC (centres undefined)	-5	-9	-3.1	-10%	6	3.5%	-2
CCOC(=O)C1CCN(S(=O)(=O)c2ccc(-c3ccc(=O)[nH]n3)o2)CC1	-9	4	-1.6	8%	0	0.7%	-6
COc1cnc(SCc2ccc(Cl)c(Cl)c2)nc1Cl	0	/	-1.7	-7%	40	-0.7%[38.3 µM]	34
CCOC(=O)/C=C/C(=O)Nc1ccc(S(=O)(=O)Nc2nccs2)cc1	-7	1	-3.4	8%	-1	-0.9%	0
COC(=O)C1(C)COP(=O)(NC23CC4CC(CC(C4)C2)C3)OC1 (centres undefined)	-3	/	-0.3	/	10	-3.1%	9
COc1ccc(OC)c(/C=N/NC(=O)c2cnccn2)c1	-19	3	-4.9	-8%	-1	5.5%	-10
N#CC(C#N)=C(N)Nc1cccc(Cl)c1	0	-15	-5.5	19%	-3	2.5%	12
Cc1ccc(-c2csc(Nc3ccc(S(N)(=O)=O)cc3)n2)o1	-3	-8	-2.7	10µM*	-12	1.9%	-1
CCOc1ccc(C(=O)Nc2nnc(C3=COCCO3)o2)cc1	-15	-5	2.0	7%	?	-1.6%	?
Cc1oc(-c2ccc(-c3ccccc3)cc2)nc1CN(C)C1CCOC1 (centres undefined)	-15	3	-3.0	3%	-13	1.8%	-10

Just Sfp inh and PINK1 modulator, for some of the entries so far:
mol	Sfp inh	PINK1 modulator
CCCCCOC(=O)c1cc(=O)[nH]c2ccccc12	3%	-0.7%
COc1cccc(-c2nc(-c3ccc4c(c3)-c3ccccc3S4(=O)=O)c(-c3ccccc3)[nH]2)c1OC	-4%	-1.2%
C[C@@H]1CN([C@@H](C)CO)C(=O)CCCn2cc(nn2)CO[C@H]1CN(C)S(=O)(=O)c1ccccc1F	/	-0.8%
CCCCN(CCCC)c1nc2ccccc2nc1C(C#N)C(=O)NCCCOC (centres undefined)	-10%	3.5%

(more compounds)
SMILES	D2 potentiator	TRPV1 potentiator	D2 agonist	Sfp inh	CtBP-E1A blk	PINK1 modulator	Six1-Eya2 blk
COCCCn1c(SCC(=O)NC(C)(C)C)nnc1-c1ccccc1	-13	23	-2.8	-12%	6	2.1%	4
COCCNC(=O)Cc1c(C)c2c(cc(C)c3c(C)coc32)oc1=O	-4	3	0.4	11%	/	2.6%	0
CCN(C[C@H]1N[C@@](CC)(C(=O)OC)[C@H]2C(=O)N(C)C(=O)[C@@H]12)C(=O)Nc1ccc(C(F)(F)F)cc1	-4	/	-1.0	/	5	0.6%	8
O=C(/C=C/c1ccccc1)NNC(=O)C1CC1	-14	4	-4.5	11%	-12	11%[38.3 µM]	-9
CC(NC(=O)c1ccccc1)c1nnc(SCC(=O)NC2=NCCS2)n1C (centres undefined)	-3	9	-2.0	17%	5	2.7%	-2
CC(C)CC(=O)OCc1cn(-c2ccccc2)nn1	3	-14	-0.8	6%	6	1.3%	3
COc1ccc(S(=O)(=O)NC2CCCC2)cc1C(N)=O	-6	7	1.0	9%	4	0.2%	-1
O=S(=O)(c1cccc2nsnc12)N1CCN(c2ccccc2F)CC1	-11	-4	-4.6	0%	-2	0.7%	2
COC(=O)C(C)N1C(=O)S/C(=C\c2ccc(-c3ccc(C(=O)O)cc3C)o2)C1=O (centres undefined)	4	4	-3.8	-1%	/	5.2%	-22

3 compounds from above, arranged by the number in CtBP-E1A blk, high to low.
structure	CtBP-E1A blk
O=S(=O)(NCc1ccncc1)c1ccccc1	6
C/C(=N\NC(=O)c1ccc(O)cc1)c1cccc(NC(=O)c2ccccc2C)c1	-4
Nc1c(S(=O)(=O)c2cccs2)c2nc3ccccc3nc2n1/N=C/c1cccc(O)c1	-92*
